Assay outcomes from PubChem BioAssay.
MgrA-DNA mod = S. aureus MgrA activity modulators, primary screen, biochemical, S. aureus Newman, fluorescence polarization; MgrA-DNA binding; inhibition, %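 (about 10 µg/mL by stock and volumes)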; 0.13% of 84,000 active;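 active = above 50% in either of two replicates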;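 note: 0% = protein plus DNA without compound and 100% = DNA alone without protein; higher means less MgrA bound to DNA so lower polarization; one replicate is shown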
S aureus helic = inhibitors of S. aureus replicative helicase, primary screen, biochemical, fluorescence unwinding readout; replicative DNA helicase (DnaC/DnaB), Staphylococcus aureus; purified S. aureus helicase, fluorescence unwinding assay; about half of the hits fall short of the stated cut; inhibition, %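 (tested at about 80 µM)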; 0.05% of 120,000 active;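 active = both duplicates at 50% or more, or one of them with a favoured structure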;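 note: 0% = mean of negative control wells and 100% = mean of positive control wells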
* hit, by the source's call; i = inactive; . = no result given; & = joins results of further samples.

Results follow in this order: S aureus helic	MgrA-DNA mod
> NC(=O)Cn1cnc2c(cnn2-c2ccc(Cl)cc2)c1=O
  -7.0	.
> O=C(c1ccccc1)C(Sc1nnc(-c2ccc3c(c2)OCO3)o1)c1ccccc1 (configuration not stated)
  11.0	.
> N#Cc1ccc(OCc2nnc3n2CCCCC3)cc1
  -32.0	1.1
> COCCOc1nc2ccccc2nc1C
  10.0	1.8
> O=C(OCc1cc2c(cc1Br)OCO2)c1cnccn1
  -2.0	.
> CCS(=O)(=O)N1CCc2cc(C(=O)Cn3ncc(Cl)c(Cl)c3=O)ccc21
  -13.0	.
> O=c1[nH]c(C2CCN(S(=O)(=O)Cc3ccccc3)CC2)nc2c1nnn2Cc1cccc(Cl)c1
  7.0	-3.4
> CC(C)(C)c1oc(C(=O)O)cc1COCC(F)(F)F
  -11.0	0.0
> c1ccn2c(SCc3ccc4c(c3)OCO4)nnc2c1
  4.0	.
> Cc1ccsc1C(=O)OCC(=O)NC1CC1
  -8.0	-0.7
> Oc1ccc2cc(Br)ccc2c1
  5.0	.
> CN1/C(=C\C(=O)CSCCO)C(C)(C)c2ccccc21
  i	.
> O=S(=O)(NC1CCCCC1)c1cccc(-c2nnc(-c3ccccc3)o2)c1
  6.0	-0.9
> O=C(O)C1CCCCC1C(=O)NCC1CCCCC1 (configuration not stated)
  -23.0	1.5
> CC1(NC(=S)Nc2ccccc2)CCS(=O)(=O)C1 (configuration not stated)
  34.0	.
> Cc1ccc(OC(=O)c2ccco2)cc1C
  -4.0	0.9
> CC(=O)n1ccc2ccc(C(=O)CN3CCN(c4ccc(F)cc4)CC3)cc21
  25.0	.
> CN(C)c1c(F)cc(/C(N)=N/O)cc1F
  .	1.1
> Cn1cccc1C(=O)Nc1ccc2c(c1)nc1n2CCCCC1
  6.0	.
> O=c1[nH]c2ccccc2c2ccccc12
  .	-0.4&-1.1
> Cc1ccc(-n2c(SCc3ccccc3)nnc2-c2cccnc2)cc1Cl
  14.0	0.5
> O=C(NCc1ccccc1)c1ccc2nc(N3CCCCC3)sc2c1
  8.0	.
> COc1ccc(N2C(=O)CC(NC34CC5CC(CC(C5)C3)C4)C2=O)cc1 (configuration not stated)
  -3.0	-0.4
> COc1ccc(OC2CCNCC2)cc1
  0.0	.
> NC(CC(=O)OC1CCCCC1)C(=O)OC1CCCCC1 (configuration not stated)
  -2.0	1.4
> c1ccc(-c2nnc(-c3ccccc3)n2-c2ccncc2)cc1
  2.0	.
> CCn1c(C(=O)N2CCC(C(=O)NCc3cccc(OC)c3)CC2)cc2occc21
  18.0	.
> Cc1nnsc1C(=O)NCc1c(Cl)cccc1Sc1ccc(Cl)cc1
  .	3.8
> NS(=O)(=O)c1ccc(NC(=S)N2CCc3ccccc3C2)cc1
  14.0	3.5
> COC(=O)c1c(C)nc(C)c(C(=O)OC)c1-c1csc(S(=O)(=O)N2CCSCC2)c1
  .	-1.4
> CC1(C)N=C(c2c(F)c(F)c(F)c(F)c2F)N(O)C1(O)c1ccccc1 (configuration not stated)
  .	1.8
> CCOC(=O)c1c(C)n(-c2ccccc2)c2ccc(OC(=O)c3ccc(C)cc3)cc12
  .	2.8
> CCOC(=O)c1ccc(NC(=O)c2cnc3sccn3c2=O)cc1
  5.0	.
> CCCOc1ccc(-c2nonc2NC(=O)c2oc3ccc(F)cc3c2C)cc1OCCC
  -9.0	.
> CCC(=O)Nc1sc2c(c1C(=O)N1CCCCC1)CCCCC2
  2.0	2.3
> NS(=O)(=O)c1ccc(CNCC(F)(F)F)cc1
  -8.0	.
> CCN(C(=O)c1ccc2c(=O)n3c(nc2c1)CCCCC3)c1cc(Cl)ccc1OC
  14.0	-0.7
> COc1cc(Nc2nc3ccccc3n3nnnc23)cc(OC)c1OC
  6.0	.
> O=C(O)CC(CC(=O)Nc1ccc(N2CCOCC2)cc1)c1ccccc1 (configuration not stated)
  .	-0.9
> O=C(O)c1oc2ccc(Br)cc2c1-n1cccc1
  4.0	-1.8
> CCOC(=O)c1c(NC(=O)c2ccc(F)cc2)sc(C(=O)Nc2cc(C(F)(F)F)ccc2Cl)c1C
  .	2.3
> CC(C)(C)C1CCC(OC(=O)c2ccc3c(c2)OCO3)CC1 (configuration not stated)
  5.0	.
> CC1Cc2ccccc2N1Cc1cccc(S(=O)(=O)N(C)C)c1 (configuration not stated)
  5.0	.
> Cc1ccccc1NC(=O)C(C)Sc1nc2ncccc2o1 (configuration not stated)
  -17.0	.
> COC(=O)c1ccccc1NC(=O)Nc1ccc(Cl)cn1
  5.0	-0.5
> Cc1sc2nc(SCC(N)=O)n(-c3ccccc3)c(=O)c2c1C
  11.0	.
> N#Cc1c(NC(=O)COC(=O)C2=COCCO2)oc(-c2ccccc2)c1-c1ccccc1
  -4.0	.
> Cc1csc(N(C(=O)/C=C/c2ccco2)c2ccccc2)n1
  -3.0	.
> Oc1ccccc1/C=N/c1nc(-c2ccccc2Cl)cs1
  .	1.1
> Cc1cc(C)c(-n2c(SCC(=O)Nc3ccccc3Cl)n[nH]c2=O)c(C)c1
  .	0.4
> CCOc1ccc(N=c2scc(-c3ccc(Cl)s3)n2C)cc1
  2.0	-0.5
> COCC(C)NC(=O)C1CCN(S(=O)(=O)c2ccc(F)cc2)CC1 (configuration not stated)
  4.0	-4.7
> COc1ccc(NC(=O)CCCOc2ccccc2)cc1
  3.0	-0.4
> O=C(O)CCSc1ccc2ccccc2c1
  .	0.2
> N#CC(C(N)=S)=C1CCCCC1
  -21.0	.
> O=C(Nc1cc(Cl)cc(Cl)c1)C1CC1
  .	-3.6
> O=C(OCCCc1nc2ccccc2[nH]1)c1cccc(F)c1
  6.0	.
> CN(C)c1ccc(C2C3=C(CC(C)(C)CC3=O)Oc3nc(N)c(C#N)c(N)c32)cc1 (configuration not stated)
  9.0	-3.2
> O=C(NC1CSC/C1=N\O)c1ccccc1 (configuration not stated)
  4.0	4.5
> O=C(c1cc(-c2ccc3c(c2)OCO3)on1)N1CCOCC1
  13.0	1.9

Other results:
Results follow in this order: S aureus helic	MgrA-DNA mod
> Cn1c(CSc2nc3ccccc3s2)nnc1SCC(=O)NCCO
  6.0	-1.1
> CC1CC(C)CN(c2oc(-c3ccc(F)cc3)nc2C#N)C1 (configuration not stated)
  -13.0	.
> CC1(C)CC2CC(C)(CN2c2nc3ccccc3[nH]c2=O)C1 (configuration not stated)
  -2.0	.
> CC(=O)Nc1ccc(S(=O)(=O)NC2(C(F)(F)F)NC(=O)N(C3CCCCC3)C2=O)cc1 (configuration not stated)
  8.0	5.5
> C=C(C)C[N+](C)(C)Cc1c(C)ccc2ccccc12
  -14.0	0.5
> COc1ccccc1C(=O)Oc1ccc(C#N)cc1
  -1.0	.
> Cc1onc(-c2c(Cl)cccc2Cl)c1NC(=O)O/N=C/c1ccccc1[N+](=O)[O-]
  .	-1.2
> Cc1ccc(N(CC(N)=O)S(=O)(=O)c2ccccc2)cc1
  14.0	0.2
> CCc1cc2c(=O)c(-c3ccc4c(c3)OCO4)c(C(F)(F)F)oc2c(CN(C)C)c1O
  .	1.1
> CCCC(=O)N/N=C/c1ccc(Br)cc1
  -5.0	.
> Cc1nc(-c2ccc(-c3noc(C)n3)cc2)no1
  .	-0.1
> CCOCN1C(=O)c2cccc3cccc1c23
  0.0	.
> CC(=O)Oc1ccc(N(C(C)=O)S(=O)(=O)c2ccccc2)cc1
  -2.0	.
> Cc1ccc2nc(-c3ccc(C#N)cc3)cn2c1
  .	3.1
> Cc1ccc(C(=O)CSc2n[nH]c(C(F)(F)F)n2)cc1
  .	-0.2
> O=C(c1ncc[nH]1)c1ccco1
  -13.0	.
> O=S(=O)(c1cccc2cccnc12)N1CCN(Cc2ccccc2)CC1
  -16.0	.
> Cc1cccc(-c2nsc(SCC(=O)N3CCCCC3)n2)c1
  -1.0	0.0
> Cc1cc(N2CCCCC2)nc2ccc(NC(=O)CCC3CCCC3)cc12
  12.0	0.3
> Cc1cc2nc(C)n(CCCNC(=O)Nc3ccc(F)cc3)c2cc1C
  7.0	.
> Cc1csc(C(C#N)C(=O)CSc2nnc(NC3CC3)s2)n1 (configuration not stated)
  9.0	.
> O=C(c1cc(=O)n2c(nc3ccccc32)s1)N1CCN(c2ccccc2)CC1
  -6.0	.
> COc1cccc(NC(=O)Nc2ncccc2C)c1
  9.0	-9.8
> O=S(=O)(CCN1CCOCC1)c1ccc(Cl)cc1
  .	-3.8
> NC(=O)CN1c2ccccc2-c2ccccc2S1(=O)=O
  2.0	-2.3
> CCN(CC)c1nc(C)cc(COC)c1C#N
  7.0	.
> COc1ccc(CCNC(=O)CCN2C(=S)NC(C)(C)CC2C)cc1OC (configuration not stated)
  13.0	-2.1
> CCOc1ccc2nc(C(=O)N3CCCCCC3)sc2c1
  9.0	.
> Nc1cccc2c1C(=O)N(Cc1ccccc1)C2=O
  -21.0	.
> Cc1ccc2cnn(CC(=O)NCc3cccnc3)c2c1
  21.0	.
> CC(C1CC2CCC1C2)n1c(-c2cccs2)n[nH]c1=S (configuration not stated)
  27.0	.
> Cc1cc2c(cc(C(=O)OC(C(=O)NCC3CCCO3)C(C)C)n2C)o1 (configuration not stated)
  5.0	-8.6
> CCCCn1c(=O)[nH]c2ccccc21
  -12.0	.
> N#Cc1ccc(N2C(=O)C3C4C=CC(O4)C3C2=O)cc1 (configuration not stated)
  .	2.6
> CCCC1CCCCNC1=O (configuration not stated)
  2.0	-1.1
> C/C=N/NC(=O)COc1ccc(Cl)cc1
  23.0	.
> CC1=C(C(=O)OCC(F)(F)F)C(c2ccc3c(c2)OCO3)NC(=O)N1 (configuration not stated)
  12.0	-0.9
> O=C1NC(=S)N/C1=C\c1cc(Br)cc(Br)c1O
  .	8.1
> Cc1cc2nc3s/c(=C/c4ccc(-c5ccccc5C(=O)O)o4)c(=O)n3c2cc1C
  .	0.4
> CCOc1cccc(=[O+]CC)c2c(C)oc(C)c12
  -42.0	63.0*

Next part (2 carried over from the part before).
Results follow in this order: S aureus helic	MgrA-DNA mod
> Cc1cc2nc3s/c(=C/c4ccc(-c5ccccc5C(=O)O)o4)c(=O)n3c2cc1C
  .	0.4
> CCOc1cccc(=[O+]CC)c2c(C)oc(C)c12
  -42.0	63.0*
> COC(=O)C1=C(C)NC(=O)/C1=C\c1ccc2c(c1)OCO2
  12.0	6.0
> O=C(O)CCc1ccc(-c2ccccc2)n1NC(=O)c1ccccc1Br
  9.0	1.8
> CC(=O)N(c1nnc(-c2ccc(C)cc2)s1)C1CCCC1
  -2.0	-0.9
> Cc1n[nH]c(C)c1N1C(=O)c2cccc3c(Br)ccc(c23)C1=O
  43.0	.
> Cc1ccc(Cn2nnc(-c3cc(Cl)cc(Cl)c3)n2)cc1
  .	-1.7
> COc1ccc(CNC(=O)CN2C(=O)C(C)=C(c3ccc(C)cc3)S2(=O)=O)cc1
  11.0	.
> COc1cc(Br)cc2cc(C(=O)NCc3ccc4c(c3)OCO4)c(=O)oc12
  9.0	.
> COCCNC(=O)c1ccc2snnc2c1
  15.0	.
> Cc1ccc(NC(=O)NC(=O)Cn2nnc(-c3ccc(Cl)cc3)n2)c(C)c1
  8.0	.
> Cc1ccc(Oc2ncccc2C(N)=O)cc1
  .	0.4
> O=C(NCc1cccs1)c1ccc2nccnc2c1
  .	3.6
> Cc1cccc(-c2nc3s/c(=C\C4=Cc5ccccc5OC4)c(=O)n3n2)c1
  4.0	4.8
> COC(=O)CN1C(=O)c2ccccc2NC1c1ccc(OC)cc1 (configuration not stated)
  10.0	0.8
> N#C/C(=C\c1cn(-c2ccccc2)nc1-c1ccccc1Cl)C(N)=O
  -6.0	.
> COC(=O)C1=C(C)NC(C)=C(C(=O)OCCN(C)Cc2ccccc2)C1c1cccc([N+](=O)[O-])c1 (configuration not stated)
  .	1.2&-2.1&-0.4
> COC(=O)c1cc2oc3ccccc3c2n1CC(=O)NCCC1=CCCCC1
  8.0	-1.4
> NC(=O)c1cc(-c2ccc(Cl)cc2)no1
  0.0	.
> Cc1cc(C)cc(NC2=NS(=O)(=O)c3ccccc32)c1
  4.0	1.6
> CSC1=NC=C(C#N)C2=NC(c3ccc(N(C)C)cc3)NN12 (configuration not stated)
  .	0.6
> Cc1ccc(-c2cc(C(F)F)nc(NC3CCCCC3)n2)cc1
  15.0	.
> CC(C)Nc1nc(NC(C)C)nc(Oc2ccc(/C=N/O)cc2)n1
  -7.0	.
> O=C1C(c2nc3ccccc3[nH]2)=C(O)c2ccccc21
  5.0	-3.9
> C=C(C)c1nc2cc(OC)c(OC)cc2c(=O)o1
  14.0	-0.4
> O=C1OC([N+](=O)[O-])Cc2ccccc21 (configuration not stated)
  .	4.9
> Cc1cccc(C(=O)NC2CCN(CC(=O)N3CCOCC3)CC2)c1
  10.0	-6.0
> Cc1n[nH]c(C)c1NC(=O)CSc1nnc(-c2ccoc2C)n1-c1ccccc1
  34.0	.
> CN1C(=O)/C(=C/C=C2\SCCN2C)SC1=S
  0.0	-6.9
> O=C(NCc1ccc2c(c1)OCO2)c1cccs1
  2.0	.
> CCc1cc2c(=O)c(Oc3ccccc3F)c(C)oc2cc1OCC(=O)O
  -3.0	.
> Cc1sc2nc(CSCC(=O)OC(C)(C)C)[nH]c(=O)c2c1C
  -9.0	.
> COc1cc(OC)cc(C(=O)Nc2nnc(-c3ccccc3Cl)s2)c1
  12.0	.
> CC1CCN(C(c2ccncc2)c2ccc3cccnc3c2O)CC1 (configuration not stated)
  -4.0	.

Quoted at random: three entries already listed.
Results follow in this order: S aureus helic	MgrA-DNA mod
> COc1ccc(NC(=O)CCCOc2ccccc2)cc1
  3.0	-0.4
> CCOC(=O)c1c(NC(=O)c2ccc(F)cc2)sc(C(=O)Nc2cc(C(F)(F)F)ccc2Cl)c1C
  .	2.3
> COc1ccc(N2C(=O)CC(NC34CC5CC(CC(C5)C3)C4)C2=O)cc1 (configuration not stated)
  -3.0	-0.4

This is a subset; count on the stated rates, not on these rows.
